# miR-21 FLuc – raises the signal of a miR-21 reporter; AID 2288; HeLa miR-21 FLuc reporter, luciferase, 48 h; Potency, µM (top dose mostly 38.3 µM), for inactives: top-dose reporter change, positive = more light; 340,000 tested, under 10 active; active = well fitted rising curve with a large enough effect; inconclusive = small, poorly fitted or top-dose-only effect; inactive = no such curve, though single readings can be large or run the other way;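 also: % of control where 0% means no effect; miR-21 action dims this reporter so a rising signal means less miR-21 action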
#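 Using DMEM plus 10% FBS, HeLa miR-21-FLuc cells are incubated with test compounds (final up to about 40uM) for 48 hours; firefly luciferase signal is then imaged following reagent-mediated lysis.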
# Rango-impB inh – inhibitors of Rango-importin beta complex formation | Q14974 | Rango CFP/YFP FRET sensor + importin beta, 45 min | Potency, µM (top dose mostly 92.2 µM), inactives show at the top dose inhibition of complex formation | actives 0.031% (n = 340,000) | AID 540263; active = rising FRET ratio curve, often small or poorly fitted; inconclusive = mostly compound fluorescence or quenching in the first reads; inactive = flat curves in all reads;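 also: potency is read from the fitted curve at half-maximal effect; 0% = DMSO wells and 100% = buffer wells lacking importin beta; nearly all actives have a fitted effect of over 15% in size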
#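 Inhibition scored from the CFP 486 nm/YFP 530 nm FRET ratio 45 min after adding 0.125 microM importin beta to 50 nM Rango biosensor preincubated 5 min with compound (room temperature, PBS with DTT, Tween-20, BSA). No-importin wells as positive control.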
# Rango release inh – inhibition of RanGTP-driven Rango-importin beta dissociation. actives 0.071% (n = 340,000). Potency, µM (doses to about 46.1 µM), without a hit: at the highest dose activity change, negative = inhibition. Biochemical FRET Rango-importin beta, RanGTP-induced dissociation. O95149+P62826. AID 540253; active means falling FRET ratio curve, often poorly fitted, with flat reads before Ran was added; inconclusive means other falling curves, or compound fluorescence or quenching; inactive means flat or rising ratio curve;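 also: potency is read from the fitted curve at half-maximal effect; % of control where 0% means no effect; nearly all actives have a fitted effect of over 45% in size; -100% = wells without RanGTP and RCC1; the record marks most hits as doubtful in a second field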
#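 Compounds sat 5 min at room temperature with 0.1 uM Rango biosensor plus 0.25 uM importin beta, then FRET pre-read. RanGTP-RCC1 (0.6 uM Ran, 2mM GTP, 0.2 uM RCC1) added for 45 min, and the CFP/YFP post-read measured blocked complex dissociation.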
# GLA inh pH 4.5 – alpha-galactosidase A (human) inhibition, pH 4.5; 230,000 tested, under 10 active; purified enzyme, 4-MU-alpha-Gal fluorescence, pH 4.5; AID 1467; P06280; activity change, negative = inhibition, % at 105 µM; inconclusive = small, poorly fitted or top-dose-only inhibition, or a rising curve; inactive = flat fitted curve, though single readings scatter; no compound was filed as active;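 also: 0% = full activity with enzyme and -100% = basal without enzyme; dose as in the result columns while the protocol names 77 µM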
# Target sequence (P06280 whole entry, looked up): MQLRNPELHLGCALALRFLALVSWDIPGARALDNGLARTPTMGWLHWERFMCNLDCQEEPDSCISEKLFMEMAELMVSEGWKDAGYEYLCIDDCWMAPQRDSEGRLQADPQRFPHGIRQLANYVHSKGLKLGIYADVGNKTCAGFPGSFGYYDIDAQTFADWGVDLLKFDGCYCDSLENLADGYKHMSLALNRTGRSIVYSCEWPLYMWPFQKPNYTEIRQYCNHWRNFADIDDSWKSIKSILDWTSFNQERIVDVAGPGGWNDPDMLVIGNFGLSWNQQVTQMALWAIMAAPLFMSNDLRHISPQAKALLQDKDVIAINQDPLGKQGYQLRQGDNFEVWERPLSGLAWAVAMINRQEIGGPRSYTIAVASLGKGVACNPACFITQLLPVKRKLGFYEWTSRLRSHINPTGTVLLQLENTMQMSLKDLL
# * hit, by the source's call; ? = inconclusive; . = not tested or not shown; & = joins results of further samples. This is a subset. The share of hits here may be higher or lower than overall.
SMILES,miR-21 FLuc,Rango-impB inh,Rango release inh,GLA inh pH 4.5
CCOc1ccc(C2CC(c3cccc(OC)c3)Nc3ncnn32)cc1 (stereo not given),-5%,-1.0%,?,-2
COc1ccc(N2CC(C(=O)Nc3nnc(SCc4cccnc4)s3)CC2=O)cc1 (stereo not given),-6%,-0.8%,0%,.
O=C(CC(=O)N1CCN(c2ccccn2)CC1)Nc1ccc2nc3n(c(=O)c2c1)CCCCC3,-8%,-0.1%,-12%,0
COc1cc([N+](=O)[O-])c2nccnc2c1,0%,-2.4%,0%,5
Cn1c(Cc2ccc3c(c2)OCO3)nnc1SCC(=O)NC(C)(C)C,-8%,-0.6%,18%,?
COc1ccc(CCNC(=O)C2CCN(Cc3nc(-c4cccc(Cl)c4)oc3C)CC2)cc1OC,19%,-2.6%,2%,-14
COc1ccc(NC(=S)NCC(c2cccnc2)N2CCOCC2)cc1 (stereo not given),1%,-0.4%,28%,-5
COc1cc(C(=S)N2CCCC2)cc(OC)c1OS(=O)(=O)c1ccc(NC(C)=O)cc1,2%,1.7%,0%,-4
OC1CCN(CC(O)C(F)(F)F)CC1 (stereo not given),1%,-2.6%,4%,4
O=C(O)CS/C(=C\c1ccc(F)cc1)c1nc2ccccc2s1,-13%,.,.,-1
C#CCN1C(=O)C(O)(CC(=O)/C=C/c2ccco2)c2ccccc21 (stereo not given),2%,?,?,5
COc1ccc2c(c1)C(=O)N1[C@H]3c4cc(Br)ccc4OC[C@@H]3[C@H](c3ccccc3)[C@]1(C)C(=O)N2,.,-0.4%,-2%,.
O=C(c1cc([N+](=O)[O-])cc([N+](=O)[O-])c1)N1CCOCC1,1%,2.5%,8%,6
Cc1ccc(C(=O)Nc2ccccc2C(=O)NC(Cc2c[nH]c3ccccc23)C(=O)O)cc1 (stereo not given),-29%,-0.1%,9%,-1
CCOc1ccc(/C=C2\SC(=O)N(c3ccc(O)cc3)C2=O)cc1OC,-26%,2.8%,19%,-21
CCn1c(CC(=O)Nc2ccc(C)cc2)n[nH]c1=S,-7%,-0.4%,5%,8
CCOC(=O)N/N=C\c1sccc1C,-29%,0.5%,?,3
N#Cc1cc2c(cc1NC(=O)CCn1cnnn1)OCO2,0%,-1.3%,-7%,.
Cc1ccc(/C=C/C(=O)N2CCCC(C(N)=O)C2)o1 (stereo not given),-5%,-2.7%,0%,3
NC(=O)c1ccc(NC(=O)COC(=O)c2c3c(nc4ccccc24)/C(=C\c2cccs2)CCC3)cc1,?,?,-7%,-3
COc1ccc(C(=O)ON=C2c3ccccc3-c3ccccc32)cc1OC,3%,5.1%,-1%,1
COC(=O)C1N[C@@H]([C@@H](NC(=O)COc2ccccc2)C(=O)Nc2ccc(OC)cc2)SC1(C)C (stereo not given in full),.,1.2%,-8%,.
Oc1ccc(C[C@H]2CNC(=S)N2CC2CCCN2C[C@H](Cc2ccc(O)cc2)N2C[C@H](Cc3ccc(O)cc3)N(CC3CCCCCC3)C2=S)cc1 (stereo not given in full),.,-0.7%,4%,.
COc1ccc(Oc2cn[nH]c2-c2ccc(O)cc2O)cc1,-12%,3.9%,0%,1
COc1cccc(OC)c1C(=O)OCC(=O)Nc1cccnc1Cl,3%,0.6%,14%,10

# The closing six records of the section above are carried over, then new ones follow:
SMILES,miR-21 FLuc,Rango-impB inh,Rango release inh,GLA inh pH 4.5
NC(=O)c1ccc(NC(=O)COC(=O)c2c3c(nc4ccccc24)/C(=C\c2cccs2)CCC3)cc1,?,?,-7%,-3
COc1ccc(C(=O)ON=C2c3ccccc3-c3ccccc32)cc1OC,3%,5.1%,-1%,1
COC(=O)C1N[C@@H]([C@@H](NC(=O)COc2ccccc2)C(=O)Nc2ccc(OC)cc2)SC1(C)C (stereo not given in full),.,1.2%,-8%,.
Oc1ccc(C[C@H]2CNC(=S)N2CC2CCCN2C[C@H](Cc2ccc(O)cc2)N2C[C@H](Cc3ccc(O)cc3)N(CC3CCCCCC3)C2=S)cc1 (stereo not given in full),.,-0.7%,4%,.
COc1ccc(Oc2cn[nH]c2-c2ccc(O)cc2O)cc1,-12%,3.9%,0%,1
COc1cccc(OC)c1C(=O)OCC(=O)Nc1cccnc1Cl,3%,0.6%,14%,10
COc1ccc(Cl)cc1C(=O)OCC(=O)NCCNC(=O)COC(=O)c1cc(Cl)ccc1OC,0%,4.5%,-5%,.
COc1ccc(-n2c(N)cc(=O)nc2SCC(=O)NC2CCCCC2)cc1,.,3.6%,0%,.
O=C(CP(=O)(O)CC(=O)c1ccccc1)c1ccccc1,-1%,-3.5%,-7%,1
O=C(NC1CCCC1)C(c1ccncc1)N(C(=O)Cc1cccs1)c1ccc(F)cc1 (stereo not given),4%,-0.8%,3%,.
O=C(C#Cc1ccccc1)Nc1cccc(F)c1,?,4.8%,-8%,.
O=C(NC1CCCCC1)C(c1ccncc1)N(C(=O)Cc1cccs1)c1ccccc1 (stereo not given),-8%,-1.8%,-7%,2
Cc1ccc(NC(=O)c2noc3c2CCCCC3)cc1,-29%,-2.4%,2%,0
O=C(OCC(=O)N1CCN(c2ccccc2)CC1)C1CCCN1S(=O)(=O)c1ccc(Cl)cc1 (stereo not given),.,2.8%,-20%,.
NNC(=O)c1ccc(-c2ccccc2F)cc1,0%,?,-9%,-5
CC1CCN(CCc2nc3cc(NC(=O)NC4CCCCC4)ccc3n2C)CC1,-19%,1.0%,-9%,2
CCN(CC)S(=O)(=O)c1cc(NC(=O)CSc2n[nH]c(N)n2)ccc1C,.,-0.7%,0%,.
CCOc1cc2[nH]c(=S)n(C3CCN(Cc4ccccc4)CC3)c(=O)c2cc1OCC,0%,0.3%,2%,-2
Cc1nn(-c2ccccn2)c2c1C(=O)CC(C)(C)C2N=[N+]=[N-] (stereo not given),.,0.4%,-17%,.
O=C(c1ccc(-n2cnnn2)cc1)N1CCOCC1,7%,3.3%,46%,-1
CC(C)(C)c1ccccc1NC(=O)CN1C(=O)NC2(CCCC2)C1=O,4%,2.2%,16%,.
Cc1ccc(-n2c3c(cc(C(=O)NCC(=O)c4ccccc4)c2=O)C(=O)CCC3)cc1,3%,1.9%,18%,.
N#CC(Sc1ccccn1)c1ccc(Cl)cc1 (stereo not given),1%,0.0%,9%,6
CCCCCCSC1=C(C#N)C(c2ccc(O)cc2)CC(=O)N1 (stereo not given),1%,1.9%,11%,-1
CCC(CC)C(=O)N1CC(=O)Nc2ccc(F)cc2C1c1ccc(F)cc1 (stereo not given),12%,-0.1%,4%,.
CCCN1CCN(CCCNC(=O)CCNC(=O)Cn2ccc3ccccc3c2=O)CC1,-3%,-0.7%,8%,5
O=C1CCCN1CN(C(=O)c1ccccc1)c1ccccc1,-2%,-4.1%,0%,12
Cc1ccc(C(=O)N2CCCCC2)cc1NC1=C(Cl)C(=O)N(Cc2ccccc2)C1=O,.,?,-19%,.
O=Cc1cccc2ccc3cccc(C(=O)O)c3c12,.,-0.3%,-11%,.
COc1ccc(-n2ncc3c2CC(C)(C)CC3NC(=O)CCn2cncn2)cc1 (stereo not given),-5%,-3.0%,-2%,.
C=CCNC(=O)c1c(CSc2ccc(Cl)cc2)noc1C(=O)NCc1ccccc1,.,3.4%,-4%,.
# (more compounds)
SMILES,miR-21 FLuc,Rango-impB inh,Rango release inh,GLA inh pH 4.5
OCC#CCSc1nnc(-c2ccncc2)o1,5%,1.1%,-16%,0
NC(=O)CSc1nnc(COc2cccc3ccccc23)o1,-2%,-1.3%,3%,.
c1cc(SC2CCCCC2)cc(-c2nc3cnccn3c2NC2CCCCC2)c1,.,?,?,.
Cc1cc(NC(=O)COC(=O)CNS(=O)(=O)c2ccc(C)c(C)c2)no1,0%,0.6%,-7%,-5
Cc1cc(C)c(S(=O)(=O)c2cccc(C(F)(F)F)c2)c(=O)[nH]1,2%,-3.6%,12%,.
OCCN1CCN(CC(O)COCCOc2ccc(Br)cc2)CC1 (stereo not given),2%,-0.9%,?,-2
C/C(=N\NC(N)=O)c1c(F)cccc1F,-1%,-0.5%,0%,0
CCOC(=O)[C@@H]1[C@H]2COc3cc(OC)ccc3[C@H]2N2C(=O)N(c3ccc(Cl)cc3)C(=O)[C@]12C,.,0.9%,0%,.
CCOc1ccc(C(C)=O)cc1CSc1nnnn1-c1ccc(O)cc1,8%,?,27%,3
COCCCNC(=O)c1ccc([N+](=O)[O-])c(Cl)c1,-3%,-2.1%,-8%,5
NC(=O)c1cccnc1,3%,3.1%,-5%,4&0
Nn1c(SCC(=O)NCC2CCCO2)nnc1-c1ccco1 (stereo not given),.,-0.8%,2%,.
COC(=O)c1cc(N=Cc2c(O)c3ccccc3oc2=O)cc(C(=O)OC)c1,6%,0.6%,21%,.
CC(C)c1nnc(NC(=O)C2CCCN2C(=O)Nc2ccccc2)s1 (stereo not given),1%,3.4%,0%,.
O=C(C1CCCN(S(=O)(=O)Cc2ccccc2)C1)N1CCc2ccccc21 (stereo not given),8%,1.8%,-1%,1
CCOc1ccc(NC(=O)CN(C)C(=O)c2cccnc2Sc2ccccc2Cl)cc1OCC,.,0.7%,3%,.
CN(C(=O)c1cccc(NC(=O)Cc2cccc(NC(=O)C3CCN(C(=O)C4CCCCC4)CC3)c2)c1)C1CCC1,.,1.1%,25%,.
COc1ccccc1CNC(=O)CCCc1cn(C)c2ccccc12,-10%,-1.5%,-10%,.
O=C(CSc1nnc(-c2ccc(O)cc2)n1-c1ccccc1)CC(=O)Nc1ccccc1,-2%,1.0%,0%,-2
Cc1ccc(S(=O)(=O)NCC(=O)NCc2ccncc2)cc1,-3%,3.5%,-14%,12
CCOC(=O)C1CCN(Cc2cn(C)nc2-c2ccc(Oc3ccccc3)cc2)CC1,1%,3.7%,1%,-12
O=C(NCCN1CCCCC1)Nc1ccc(F)cc1,-2%,8.4%,9%,.
CC1(c2ccccc2Cl)NC(=O)N(CC(=O)NCCC2=CCCCC2)C1=O (stereo not given),0%,-3.7%,11%,-5
COc1ccccc1C(=O)N1CCC(N2CCN(c3ccccc3)CC2)CC1,1%,2.6%,-15%,2
COc1cccc(NS(=O)(=O)c2c(C)nc3sccn3c2=O)c1,2%,1.0%,37%,.
# Further structures
SMILES,miR-21 FLuc,Rango-impB inh,Rango release inh,GLA inh pH 4.5
COc1ccc(-n2c(C)c(C(C)=O)c3cc(OC(C)=O)ccc32)cc1,10%,-1.6%,-5%,.
O=C1NC(CCc2ccccc2)C(=O)N1CCOc1ccccc1 (stereo not given),1%,-3.8%,-13%,1
COc1ccc(OC(C)=O)c(C2c3cc(OC)c(OC)cc3CCN2C(C)=O)c1 (stereo not given),-7%,-2.7%,-10%,-3
Cc1ccc(NC(=O)C2CCCN(c3ncccn3)C2)cc1F (stereo not given),-48%,1.4%,6%,-1
CCN(CC(=O)Nc1cccc(C(C)=O)c1)S(=O)(=O)c1ccc(OC)cc1,2%,1.0%,5%,-2
O=C(N[C@@H](Cc1c[nH]c2ccccc12)C(=O)O)c1ccccc1Cl,-1%,-1.3%,0%,2
NC(=O)c1ccccc1NC(=O)/C=C/c1cccc(Cl)c1,-15%,3.0%,15%,-4
CC(=NNc1nc2ccccc2s1)c1ncccn1,.,15%,2%,.
O=C1CSC(c2ccccc2)N1Nc1nc(N2CCOCC2)nc(N2CCOCC2)n1 (stereo not given),-9%,3.4%,0%,-10

# Single records, from the list above. Order of values: miR-21 FLuc, Rango-impB inh, Rango release inh, GLA inh pH 4.5
# CC(=NNc1nc2ccccc2s1)c1ncccn1 is entered as ., 15%, 2%, .
# COc1ccc(OC(C)=O)c(C2c3cc(OC)c(OC)cc3CCN2C(C)=O)c1 (stereo not given) is entered as -7%, -2.7%, -10%, -3
# COc1ccc(-n2c(C)c(C(C)=O)c3cc(OC(C)=O)ccc32)cc1 is entered as 10%, -1.6%, -5%, .
# O=C1CSC(c2ccccc2)N1Nc1nc(N2CCOCC2)nc(N2CCOCC2)n1 (stereo not given) is entered as -9%, 3.4%, 0%, -10
# Cc1ccc(NC(=O)C2CCCN(c3ncccn3)C2)cc1F (stereo not given) is entered as -48%, 1.4%, 6%, -1
